Source: PubChem
Mtb MenB inh = M. tuberculosis MenB inhibitors, primary screen, biochemical, absorbance; 1,4-dihydroxy-2-naphthoyl-CoA synthase (Mycobacterium tuberculosis (strain ATCC 25618 / …; MenB enzyme assay, absorbance read-out; some hits fall short of the stated cut; inhibition, %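 (about 12 µg/mL by stock and volumes)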; 100,000 tested, 0.43% active; AID 540299, 2011;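 active = mean of two replicates above 30%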;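 also: 0% = no compound and 100% = wells with inactive enzyme; the first replicate is given; strong numbers were not always called active; inactives centre near -10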
Target sequence (P9WNP5 whole entry, looked up): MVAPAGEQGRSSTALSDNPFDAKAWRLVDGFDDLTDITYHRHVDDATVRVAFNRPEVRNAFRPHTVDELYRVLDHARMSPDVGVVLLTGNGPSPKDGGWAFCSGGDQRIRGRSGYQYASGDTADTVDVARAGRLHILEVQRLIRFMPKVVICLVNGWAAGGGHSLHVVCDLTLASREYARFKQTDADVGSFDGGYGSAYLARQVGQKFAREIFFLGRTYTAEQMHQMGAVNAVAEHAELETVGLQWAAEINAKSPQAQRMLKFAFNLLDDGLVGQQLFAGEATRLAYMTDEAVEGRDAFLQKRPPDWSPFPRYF
Mtb MbtI inh = MbtI salicylate synthase inhibitors, primary screen, biochemical, fluorescence intensity; P9WFX0; purified MbtI enzyme, fluorescence intensity read-out; inhibition, %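 (about 17 µg/mL by stock and volumes)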; 100,000 tested, 0.89% active; AID 493033, 2011;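 active = above 50% in both replicates, above 80% if mildly self-fluorescent; inactive = the rest, strongly fluorescent compounds included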;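 also: 0% = mean of negative and 100% = mean of positive controls; one replicate is shown; some compounds called inactive have numbers as strong as hits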
Target sequence (P9WFX0 whole entry, looked up): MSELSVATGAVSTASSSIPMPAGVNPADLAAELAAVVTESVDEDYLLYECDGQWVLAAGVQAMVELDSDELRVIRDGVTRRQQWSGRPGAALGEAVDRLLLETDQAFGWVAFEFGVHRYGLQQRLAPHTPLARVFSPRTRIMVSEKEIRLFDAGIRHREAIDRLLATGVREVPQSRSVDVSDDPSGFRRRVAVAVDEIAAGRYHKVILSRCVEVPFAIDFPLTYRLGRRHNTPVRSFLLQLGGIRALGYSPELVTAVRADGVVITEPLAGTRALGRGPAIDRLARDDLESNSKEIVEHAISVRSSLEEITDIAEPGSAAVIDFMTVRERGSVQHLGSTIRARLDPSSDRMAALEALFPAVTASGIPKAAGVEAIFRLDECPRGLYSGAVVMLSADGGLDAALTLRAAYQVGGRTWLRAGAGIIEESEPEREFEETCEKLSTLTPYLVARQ
PV pol inh = poliovirus RdRp elongation inhibitors, primary screen, biochemical, fluorescence polarization, total intensity; poliovirus polymerase elongation; hits give low values; % elongation, % (compound at 16.7 µg/mL); 150,000 tested, 0.66% active; AID 588519, 2011; in the data active = % elongation below about 90%; also: some results filed as inactive read as strong as hits
PV pol inh intensity = also measured in PV pol inh; calls as there; % elongation; measured here: total intensity read-out; formula for this scale not given here;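 total fluorescence in place of polarization; lower means less elongation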
Numbers without * were called inactive; / = no result given.

SMILES	Mtb MenB inh	Mtb MbtI inh	PV pol inh	PV pol inh intensity
CC1CCc2ccccc2N1C(=N)N(C)C (configuration not stated)	-26	-49	103	108
COc1ccc(N2CCN(Cc3cc(=O)c(OCc4ccccc4)co3)CC2)cc1	-30	6	102	103
O=C(Cn1c(=O)oc2ccccc21)N1CCN(S(=O)(=O)/C=C/c2ccccc2)CC1	-20	3	100	105
Cc1ncc([N+](=O)[O-])n1CC(C)O (configuration not stated)	3	-3	98	102
N#CC1=C(S)N=C(N)C(c2nc(-c3ccccc3)cs2)C12CCCCC2 (configuration not stated)	-27	/	113	118
CC(C)[C@H](NC(=O)c1cccc(S(=O)(=O)N2CCOCC2)c1)C(=O)O	2	3	97	104
Cc1occc1C(=O)N1CCCCCC1	-28	-2	101	103
CC(C)CC(=O)Nc1ccncc1	-34	0	98	101
CCn1c(=NC(=O)c2cccc(OC)c2)sc2cccc(OC)c21	-12	109	104	102
Clc1cccc(Cl)c1CSc1nnc(N2CCOCC2)n1-c1ccccc1	-1	4	99	95
C=CCSC1=C(C#N)C(c2ccccc2Cl)CC(=O)N1 (configuration not stated)	-2	/	109	113
COc1ccc2c(c1OC)C(=O)O[C@@H]2[C@H]1c2cc3c(cc2CCN1C)OCO3	-2	-4	101	101
C=CCNC(=O)C#Cc1ccccc1	0	/	101	102
CCC(C)(C)Nc1ncccc1C(=O)O	31	3	102	105
Nc1cccc(-c2cc(C(=O)O)c3cc(Br)ccc3n2)c1	8	-3	100	99
O=Nc1c(O)[nH]c2c(C(F)(F)F)cccc12	-11	31	99	108
CCOC(=O)C1=C(N)N(c2ccc(OC)cc2)C(=O)C1	-10	13	103	106
O=C(NCc1nc2ccccc2[nH]1)c1c(F)c(F)c(F)c(F)c1F	-4	4	104	108
OC1(c2ccc(Cl)cc2Cl)CSC(=S)N1Cc1ccco1 (configuration not stated)	-14	-3	100	101
O=C(Cc1ccccc1)n1nc(-c2ccco2)nc1NCc1ccccc1	-2	-185	102	103
O=C(NCc1csc(-c2ccccc2)n1)c1ccco1	/	-2	101	94
O=c1oc(-c2cccs2)nc2scc(-c3ccccc3)c12	-17	-1	103	102
CCn1c(SCC(=O)Nc2cccc3nsnc23)nc2ccccc21	15	27	104	98
N#Cc1cnc(Sc2nnc(-c3ccncc3)o2)nc1N	-13	16	102	104
Cc1c(C(=O)O)oc2c1ccc1ccccc12	-9	105	97	97
Cc1nnc(N2CCCC2)c2c1nnn2Cc1ccccc1Cl	9	-13	101	103
Cn1ncc(C#N)c1/N=C/N(Cc1ccccc1)Cc1ccccc1	-11	-14	99	102
Cc1c(C)n(CC(O)CNC2CCCCC2)c2ccccc12 (configuration not stated)	-14	-6	99	96
CCOc1ccc2nc3c(cc2c1)CN(CCO)C(=Nc1cccc(OC)c1)S3	-17	3	102	106
CC(OC(=O)c1ccc(S(=O)(=O)N2CCCC2)cc1)C(=O)NC1CC1 (configuration not stated)	4	-2	102	111
Cc1cc(NC(=O)CCC2CCCCC2)no1	6	-4	104	104
Cn1c(=NC(=O)CSCC(=O)Nc2nccs2)sc2ccccc21	5	10	101	104
Cc1ccccc1C(=O)NC(C)c1ccc2c(c1)OCCO2 (configuration not stated)	-20	-5	98	101
COc1ccc(CCNC(=O)C2=NNC(=O)CC2)cc1	-6	11	105	110
N#Cc1c2c(c(NC3CCCC3)n3c1nc1ccccc13)CCC2	-3	7	83	123
Cc1[nH]c2ccc(C(=O)N3CCCC3)cc2c1C	10	8	101	99
O=C1Nc2ccccc2SC1CC(=O)N1CCN(c2ccc(C(F)(F)F)cn2)CC1 (configuration not stated)	2	-5	104	107
CCOCCc1c(O)nc(SCC(=O)NC(C)c2ccccc2)[nH]c1=O (configuration not stated)	-39	-24	101	105
Cc1cc(C)n(-c2ccc(C(=O)Oc3ccc4oc5c(c4c3)CCCC5)cc2)n1	4	-20	101	99
CCOc1ccccc1CNC(=O)Cn1c(C)c2cnn(-c3ccccc3)c(=O)c2c1C	0	-2	102	101
S=c1[nH]nc(CN2CCCCCC2)n1-c1ccccc1	-6	9	101	101
CSc1nc(N)c2c3c(sc2n1)CCC3	-5	1	100	104
Cc1cc2nc(C(F)(F)F)n3c4ccccc4nc3n2n1	/	-1	100	105
COC(=O)c1cc(S(=O)(=O)N(C)CC2COc3ccccc3O2)cn1C (configuration not stated)	-26	0	100	101
O=C(C1Cc2ccccc2CN1S(=O)(=O)c1ccc(F)cc1)N1CCCCC1 (configuration not stated)	16	3	101	101
CC(C)N(Cc1ccccc1)C(=O)N(C)C	-7	-5	99	101
C=C(C)CN(CC)C(=O)CSc1ncnc2ccccc12	0	25	100	97
Cc1oc(-c2ccccc2Cl)nc1CSc1nnc(C)n2c1cc1occc12	0	-3	102	102
CN(C)c1ccc(/C=N/n2c(=O)[nH][nH]c2=O)cc1	-33	-85	101	104
CCC(=O)Nc1c2c(nn1-c1ccccc1)CS(=O)C2 (configuration not stated)	6	11	100	99
CCOc1ccc(NC(=O)CN(Cc2ccccc2)S(=O)(=O)c2ccc(C)cc2)cc1	-23	-3	100	104
Cc1ccc(CNC(=O)[C@@H](c2ccccc2)N2Cc3ccccc3C2=O)cc1	-11	-10	101	105
CC1(C)CC(=O)c2sc3nc(-c4ccc(Br)cc4)cn3c2C1	14	-2	100	104
CC(C)OC(=O)C(C)Nc1ccc(F)c(Cl)c1 (configuration not stated)	-11	-18	100	102
CCCCn1c(O)c(C#N)c(C)c(N=Nc2ccc(OC)cc2)c1=O	13	6	69	191
CCN(CC)CCNCc1cccs1	-29	-10	101	102
CCCc1nc(N)c(C#N)c(-c2ccccc2)c1CC	-26	57	104	100
CCn1c(C(=O)O)c(CNCc2cccs2)c2ccc(C)cc21	-9	45	106	118
CC(NC(=O)CSc1nncn1C)c1ccccc1 (configuration not stated)	/	-2	101	106
CNCc1ccc(C(C)(C)C)cc1	-16	-1	101	109
Following part:
SMILES	Mtb MenB inh	Mtb MbtI inh	PV pol inh	PV pol inh intensity
Cc1cc(C(=O)N(C)Cc2ccc(Br)cc2)no1	9	8	105	98
Cc1nn(Cc2nnc(-c3cc(C(F)(F)F)cc(C(F)(F)F)c3)o2)c(C)c1Br	-8	-5	108	105
Nc1c(-c2n[nH]c(=S)n2-c2ccc(Cl)cc2Cl)cnn1-c1ccccc1	13	-7	101	101
Cc1cccc(C(=O)OC2CCCN(C)C2)c1C (configuration not stated)	/	-5	100	106
COCCCn1c(=O)c2ccccc2n(CC(=O)NC2CCCC2)c1=O	26	67	100	102
COc1ccccc1NC(=O)c1ccc(N2CC3CC(C2)c2cccc(=O)n2C3)c(NC(=O)c2cccnc2)c1 (configuration not stated)	-15	10	101	103
COc1ccccc1N1CCN(CCCNC(=O)Cn2cnc3onc(C)c3c2=O)CC1	-9	-8	101	102
CCOC(=O)CSc1nc(Nc2ccc(OC)cc2)c2cnc(N(CC)CC)nc2n1	0	0	102	101
CS(=N)(=O)CC[C@H](N)C(=O)O (some centres not stated)	-2	-6	103	103
O=C(/C=C/c1ccco1)NC(=S)Nc1ccc(Cl)cc1	-56	27	101	104
CC1CN(C(=O)C2CCCN2S(=O)(=O)c2cccc3nsnc23)CC(C)O1 (configuration not stated)	-62	6	100	103
O/N=C(/c1ncon1)N1CCN(c2ccccc2)CC1	15	3	99	104
CCOC(=O)CSc1nnc(Nc2ccccc2OC)s1	-23	-2	105	109
Cc1cc(N)cc2[nH]c(-c3ccc(N)cc3)nc12	-7	/	66*	42*
CC(C)NC(=O)CN1CCN(Cc2ccc(OC(F)(F)C(F)C(F)(F)F)cc2)CC1 (configuration not stated)	0	-1	97	101
O=[n+]1c(CO)c(CO)n([O-])c2ccccc21	11	8	101	104
NC(=O)c1c(N)n(-c2cccc(F)c2)c2nc3ccccc3nc12	-36	-49	/	/
Cc1ccccc1CCN1C(=O)CCC1(C)C(=O)N1CCCC1 (configuration not stated)	-6	0	102	103
COc1ccc(OC)c(CN2CCN(C(=O)c3cc(S(=O)(=O)N4CCOCC4)ccc3Cl)CC2)c1	1	4	100	103
C[N+]12CCCCC1C(CN1C(=O)c3ccccc3C1=O)CCC2 (configuration not stated)	-9	/	107	108
CCn1c(O)c(C=NCC2CCCCC2)c(=O)n(CC)c1=S	-10	11	102	109
Cc1nc2ccccc2nc1OCc1cc(=O)n2cc(Br)ccc2n1	-10	5	98	100
COCCN1Cc2cccc(C(=O)NC(C)CCc3ccco3)c2C1=O (configuration not stated)	-9	2	100	103
N=c1n(CC(=O)c2ccco2)c2ccccc2n1Cc1ccccc1	-18	-6	103	99
CC(C)CN(CC(C)C)C(=O)c1cc(-c2ccc(Cl)cc2)n[nH]1	-5	-15	101	102
CCN(CC)S(=O)(=O)c1cc(C(=O)NC(C)(C)C)ccc1Cl	/	-6	103	104
CC1(C)Cc2ccccc2C(CSc2nc(-c3ccco3)cc(C(F)(F)F)n2)=N1	-2	/	103	103
N#Cc1c(C(F)(F)F)cc(-c2cccs2)nc1S/C=C/C(=O)c1ccccc1	-7	-3	103	101
COc1ccc(-c2coc3cc4oc(=O)c(CC(=O)O)c(C)c4cc23)cc1	-4	-4	100	96
CCCNC(=O)c1ccc(C2SCCCS2)cc1	-21	-2	105	101
CCCN(CCC)C(=O)Cn1nnc2sc3c(c2c1=O)CCCC3	-2	12	102	103
O=C(/C=C/c1ccc(C(F)(F)F)cc1)OC1CCCCC1=O (configuration not stated)	-12	6	103	102
CCOC(=O)N1CCC(NC(=O)CCCC(=O)O)CC1	3	-4	103	97
N#CNC(=NC1CCCCC1)NC1CCCCC1	-9	-7	106	105
C=CCNC(=S)N(C)C1CCS(=O)(=O)C1 (configuration not stated)	-30	4	105	98
Cc1nn2c(=O)cc(CSc3nc4ccc(NC(=O)c5ccco5)cc4s3)nc2s1	9	-8	98	102
C/C(=C\c1ccccc1)C(=O)NC1CCCC1	-21	-4	98	100
O=c1c(-c2cccc(C(F)(F)F)c2)[n+]([O-])c2ccccc2n1O	-175	46	89	129
CN(CC(=O)Nc1ccc(Cl)c(C(F)(F)F)c1)c1ccc(S(=O)(=O)N2CCCCC2)cn1	4	10	104	103
Cc1ccc(CN2C(=O)CSc3ccc(NC(=O)NCCC4=CCCCC4)cc32)cc1	-3	-2	103	100
COc1nc(NCC2CCCO2)nc(N2CC3CC(C2)c2cccc(=O)n2C3)n1 (configuration not stated)	-26	/	103	93
Cc1c(C(=O)N(C)C)sc2[nH]c(=O)n(-c3ccccc3C(F)(F)F)c(=O)c12	1	-4	103	108
Cc1nn(-c2ccccc2)c(N)c1C(NC(=O)c1ccccc1)(C(F)(F)F)C(F)(F)F	-7	1	104	105
O=C(CSc1nc2ccccc2s1)NC1CCCCC1	-17	/	105	97
O=C(c1cccs1)N1CCCn2c(SCc3ccccc3)nnc21	-6	-12	108	115
Cc1cc(=O)oc2cc(OCC(O)CNCc3cn4c(C)csc4n3)ccc12 (configuration not stated)	-13	-86	98	110
CC(C)=C1Cc2cc3ccc(=O)oc3cc2O1	12	116	99	103
COc1ccc(CN2C(=O)c3cccnc3C2=O)cc1S(=O)(=O)N1CC(=O)Nc2ccccc21	-7	-31	101	103

Complete entries, looked up by structure. Order of screens: Mtb MenB inh, Mtb MbtI inh, PV pol inh, PV pol inh intensity
Profile of Cc1c(C(=O)N(C)C)sc2[nH]c(=O)n(-c3ccccc3C(F)(F)F)c(=O)c12 = 1, -4, 103, 108
Profile of Cc1nn(-c2ccccc2)c(N)c1C(NC(=O)c1ccccc1)(C(F)(F)F)C(F)(F)F = -7, 1, 104, 105
Profile of Cc1cc(=O)oc2cc(OCC(O)CNCc3cn4c(C)csc4n3)ccc12 (configuration not stated) = -13, -86, 98, 110
Profile of Cc1ccc(CN2C(=O)CSc3ccc(NC(=O)NCCC4=CCCCC4)cc32)cc1 = -3, -2, 103, 100
Profile of C/C(=C\c1ccccc1)C(=O)NC1CCCC1 = -21, -4, 98, 100

Returning to the listing, repeating the 3 entries before the break.
SMILES	Mtb MenB inh	Mtb MbtI inh	PV pol inh	PV pol inh intensity
Cc1cc(=O)oc2cc(OCC(O)CNCc3cn4c(C)csc4n3)ccc12 (configuration not stated)	-13	-86	98	110
CC(C)=C1Cc2cc3ccc(=O)oc3cc2O1	12	116	99	103
COc1ccc(CN2C(=O)c3cccnc3C2=O)cc1S(=O)(=O)N1CC(=O)Nc2ccccc21	-7	-31	101	103
C=CCn1c(SC2CCOC2=O)nc2scc(C3CC3)c2c1=O (configuration not stated)	9	10	102	105
O=C(c1ccc(Cl)cc1)N1CCCOC1	4	-6	103	104
CCn1c(SCC(=O)OCC(=O)N2CCc3ccccc32)nnc1-c1cccs1	-21	-44	101	109
CCOc1ccc(S(=O)(=O)N(C)c2ccc(OCC(=O)NCCCn3ccnc3)cc2)cc1	-30	-25	104	94
CCc1nc2ccccc2c(C(=O)OC2CCCC2=O)c1C (configuration not stated)	-10	4	102	108
COc1ccccc1CNC(=O)COc1ccccn1	/	3	101	101
CNC(=O)Cn1nc(C)n2cccc2c1=O	13	-14	104	103
COc1ccc(S(=O)(=O)Nc2cc(Cl)ccc2Sc2nncn2C)cc1Br	-19	46	101	108

Some entries already given with just PV pol inh intensity, Mtb MenB inh and Mtb MbtI inh.
| SMILES | PV pol inh intensity | Mtb MenB inh | Mtb MbtI inh |
| --- | --- | --- | --- |
| Cc1cc(NC(=O)CCC2CCCCC2)no1 | 104 | 6 | -4 |
| Cn1c(=NC(=O)CSCC(=O)Nc2nccs2)sc2ccccc21 | 104 | 5 | 10 |
| Cc1ccccc1C(=O)NC(C)c1ccc2c(c1)OCCO2 (configuration not stated) | 101 | -20 | -5 |
| COc1ccc(CCNC(=O)C2=NNC(=O)CC2)cc1 | 110 | -6 | 11 |
